# MgrA DNA FP = modulators of Staphylococcus aureus MgrA DNA binding | 84,000 tested, 0.13% active | fluorescence polarization | inhibition, %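 (about 10 µg/mL by stock and volumes)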 | AID 602314;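 active means above 50% in either of two replicates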;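 further: 0% = protein plus DNA without compound and 100% = DNA alone without protein; higher means less MgrA bound to DNA so lower polarization; one replicate is shown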
# Sa helicase inh = S. aureus DNA helicase inhibition; purified S. aureus helicase, fluorescence unwinding assay; about half of the hits fall short of the stated cut; inhibition, %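 (tested at about 80 µM)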; 120,000 tested, 0.05% active;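 active means both duplicates at 50% or more, or one of them with a favoured structure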;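 further: 0% = mean of negative control wells and 100% = mean of positive control wells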
# Numbers without * were called inactive; x = no result given.
Sa helicase inh	MgrA DNA FP	SMILES
-7	-0.2	COc1ccc(CC(=O)NC(C)c2nnc(SCC(=O)Nc3cc(C)ccc3OC)n2C)cc1 (stereo unspecified)
19	x	Cc1cc(=O)oc2c1C(=O)CC(C)(C)C2
7	-3.6	Cn1c(=O)c2[nH]c(=S)[nH]c2n(C)c1=O
-4	0.2	N#CCSc1ccc(Br)cc1
18	x	COC(=O)CNc1nc(-c2ccncc2)nc2ccccc12
11	x	CCC(CC)C(=O)NCc1ccc2c(c1)cc(C)n2C
-11	x	CC(C)N(CC(N)=O)C(=O)Cc1coc2cc3c(cc12)CCC3
18	-2.2	OC[C@H]1O[C@@H](OCc2ccccc2)[C@H](O)[C@@H](O)[C@@H]1O
x	-1.3	COc1cccc(OC)c1C(=O)NN
-13	x	COc1cc(C2Nc3cccc4cccc(c34)N2)cc(I)c1O
10	x	O=C(N1CCN(c2ccccc2)CC1)C1(S(=O)(=O)c2ccccc2)CC1
17	0.5	COc1cccc(OCCCN2CCNCC2)c1
-13	x	O=S(=O)(Nc1ccc(N2CCN(c3ncccc3C(F)(F)F)CC2)nc1)c1ccc(Cl)cc1
x	4.6	Cc1c(C(=O)Oc2ccc(Cl)cc2)n(C)oc1=O
12	x	COc1ccccc1-n1ccnc(SCC(=O)NC2CCCCC2)c1=O
7	x	CC(=O)OCc1ccc(C(=O)Nc2nccs2)cc1
-17	x	CC(C)OC(NC(=O)c1ccccc1)(C(F)(F)F)C(F)(F)F
6	0.6	Cc1c(C(=O)NC2CCCC2)oc2ccc(S(=O)(=O)N(C)C3CCCCC3)cc12
3	x	CC1(C)Oc2ccc3ccc(=O)oc3c2/C(=C/N2CCCCC2)C1=O
x	-2.1	CCOC(=O)c1ccc(OC(=O)c2cccnc2Oc2ccccc2)c(Cl)c1
-12	x	Cc1ccc(NC(=O)COc2cn(-c3ccccc3)nn2)cc1C
9	x	Cc1nc2c(C(=O)NCc3ccccc3Cl)c[nH]n2c(=O)c1Cl
-9	x	O=C(Nc1cc(Cl)ccc1N1CCCC1)c1cccc(S(=O)(=O)N2CCCC2)c1
3	5.3	C=CCN1C(=O)/C(=C2/SC(C)=C(C)N2CC)SC1=Nc1c(C)n[nH]c1C
10	x	O=C(CNC(=O)c1ccccc1F)OC1CCOC1=O (stereo unspecified)
3	x	Cc1[nH]c(C)c(S(=O)(=O)N2CCCc3ccccc32)c1C(=O)N1CCCC1
18	-3.0	CCN1C(=O)N(COC(C)=O)C2C1N(CC)C(=O)N2COC(C)=O (stereo unspecified)
-6	x	N#Cc1ccccc1Cn1c(=O)n(-c2ccc(CC(=O)NCc3ccco3)cc2)c(=O)c2sccc21
12	x	O=C(CSc1nncs1)N1CCN(C(=O)CSc2nncs2)CC1
x	-0.9	CC1=C(c2ccccc2)C(=O)NC1
x	-1.0	CC(=O)c1cnc2cc(-c3ccc(Cl)cc3)nn2c1C
x	1.1	FC(F)(F)c1ccn(-c2nc(-c3ccccc3)ns2)n1
2	18	Cc1ccc(C)n1NC(=O)c1ccc(O)cc1
9	-1.0	Cc1ccc(SC(C)C(=O)Nc2ccc(CC#N)cc2)cc1 (stereo unspecified)
x	-2.1	CS/C(Nc1ccc(C)c(F)c1)=C(\C#N)c1ccccn1
-1	-2.9	CN(C)c1ccc(C(=O)OCC(=O)c2cccs2)cc1
14	x	O=C(CCc1nc2cccnc2n1Cc1ccccc1)NCCCc1ccccc1
17	5.3	O=C(CSc1nc2c(c(C(F)(F)F)n1)CCCC2)Nc1ccccc1
x	-1.4	CCOc1ccc(NC(=S)NC2CC3C=CC2C3)cc1 (stereo unspecified)
-8	0.6	CC(C)(C)n1nnnc1CN1CCC(NC(=O)Nc2ccc(F)cc2)CC1
11	-0.4	Cc1cc(=O)oc2c1ccc1oc(/C(=N/O)c3ccccc3)c(C)c12
4	x	O=C(c1cc(-c2ccc(Br)cc2)on1)N1CCCCC1
x	0.1	O=C(CCC(=O)CCN1C(=O)c2ccccc2C1=O)CCN1C(=O)c2ccccc2C1=O
-9	x	O=C(CNC(=O)c1ccccc1)N=Nc1c(O)[nH]c2ccccc12
28	x	C=CCc1ccc(OCCCCCN2CCOCC2)c(OC)c1
-12	2.8	Cc1nc2cccnc2n1CCNC(=O)Nc1cccc2ccccc12
-5	-0.9	S=c1oc(-c2ccccc2)nn1CNc1ccccc1Br
3	-3.9	CC(C)(C)c1ccc(C(=O)NCCCn2ccnc2)cc1
6	-2.5	Cc1ccccc1NC(=O)Cc1ccccc1
-17	x	CC(=O)Nc1ccc(OCC(O)CN2CCCC2)cc1 (stereo unspecified)
4	x	COc1nc2c(c(=O)n(C)c(=O)n2C)n1Cc1ccccc1Cl
1	0.3	CCC1CCCCN1C(=O)Cn1c(SCc2cccc(Cl)c2)nc2ccncc21 (stereo unspecified)
8	x	CC1CC(C)CN(S(=O)(=O)c2ccc(C(=O)N3CCOCC3)cc2)C1 (stereo unspecified)
6	x	Cc1ccccc1-n1ncc2c(=O)n(CCN3CCCCC3)cnc21
21	-2.5	Cc1ccc(C(c2nnnn2C2CCCC2)N(Cc2cccnc2)CC2CCCO2)cc1 (stereo unspecified)
-7	0.4	CN(c1ccccc1C(=O)NCC1CCCO1)S(C)(=O)=O (stereo unspecified)
27	6.4	COc1ccc(CNC(=O)Cn2c3ccccc3c3nc(=O)cc(C)n32)cc1
-24	x	N=C1/C(=C2\Nc3ccccc3S2)CC(=O)N1Cc1ccco1
-1	x	Cc1cc(=O)[nH]c(NNC(=S)Nc2ccc(Cl)c(F)c2)n1
x	-0.5	N#Cc1cccc2cccc(Sc3ccccc3)c12

# Exported with two lines to a compound: part of the list above.
# Second line of a record – Sa helicase inh	MgrA DNA FP
> Cc1cc(=O)oc2c1ccc1oc(/C(=N/O)c3ccccc3)c(C)c12
 : 11	-0.4
> O=C(c1cc(-c2ccc(Br)cc2)on1)N1CCCCC1
 : 4	x
> O=C(CCC(=O)CCN1C(=O)c2ccccc2C1=O)CCN1C(=O)c2ccccc2C1=O
 : x	0.1
> O=C(CNC(=O)c1ccccc1)N=Nc1c(O)[nH]c2ccccc12
 : -9	x
> C=CCc1ccc(OCCCCCN2CCOCC2)c(OC)c1
 : 28	x
> Cc1nc2cccnc2n1CCNC(=O)Nc1cccc2ccccc12
 : -12	2.8
> S=c1oc(-c2ccccc2)nn1CNc1ccccc1Br
 : -5	-0.9
> CC(C)(C)c1ccc(C(=O)NCCCn2ccnc2)cc1
 : 3	-3.9
> Cc1ccccc1NC(=O)Cc1ccccc1
 : 6	-2.5
> CC(=O)Nc1ccc(OCC(O)CN2CCCC2)cc1 (stereo unspecified)
 : -17	x
> COc1nc2c(c(=O)n(C)c(=O)n2C)n1Cc1ccccc1Cl
 : 4	x
> CCC1CCCCN1C(=O)Cn1c(SCc2cccc(Cl)c2)nc2ccncc21 (stereo unspecified)
 : 1	0.3
> CC1CC(C)CN(S(=O)(=O)c2ccc(C(=O)N3CCOCC3)cc2)C1 (stereo unspecified)
 : 8	x
> Cc1ccccc1-n1ncc2c(=O)n(CCN3CCCCC3)cnc21
 : 6	x
> Cc1ccc(C(c2nnnn2C2CCCC2)N(Cc2cccnc2)CC2CCCO2)cc1 (stereo unspecified)
 : 21	-2.5
> CN(c1ccccc1C(=O)NCC1CCCO1)S(C)(=O)=O (stereo unspecified)
 : -7	0.4
> COc1ccc(CNC(=O)Cn2c3ccccc3c3nc(=O)cc(C)n32)cc1
 : 27	6.4
> N=C1/C(=C2\Nc3ccccc3S2)CC(=O)N1Cc1ccco1
 : -24	x
> Cc1cc(=O)[nH]c(NNC(=S)Nc2ccc(Cl)c(F)c2)n1
 : -1	x
> N#Cc1cccc2cccc(Sc3ccccc3)c12
 : x	-0.5

# Further structures follow.
Sa helicase inh	MgrA DNA FP	SMILES
x	-1.1	CCCC[C@@H](C=O)NC(=O)[C@H](CC(C)C)NC(=O)OCc1ccccc1
-26	x	CCOC(=O)N1CCN(C(C)=C2C(=O)c3ccccc3C2=O)CC1
-8	x	Cc1cc(/C=N/N2CCN(C)CC2)c(C)n1-c1ccc(Cl)cc1
x	0.7	Cc1ccc2c(c1)CCCN2C(=O)c1cc(C(F)(F)F)cc(C(F)(F)F)c1
-8	-1.0	O=S(=O)(Cc1ccc(Cl)cc1)N1CCc2ccccc21
-7	x	CNC(=O)NC(=O)C(C)Sc1nc2ccccc2n1C1CCCCC1 (stereo unspecified)
-14	1.3	COc1ccc(Cn2c(SCc3cccc(C(F)(F)F)c3)nc3ncccc3c2=O)cc1
2	1.9	COc1cc2ccccc2cc1C(=O)NC(C)Cc1ccccc1 (stereo unspecified)
-2	x	COc1ccc(S(=O)(=O)N2CCc3ccccc32)cc1C(=O)NCC(c1ccco1)N1CCCC1 (stereo unspecified)
-10	x	CCOC(=O)c1sc(NC(=O)C2CC2)nc1-c1ccccc1
-24	x	O=C(O)COc1ccc(CO)cc1Cl
8	x	Cc1noc2nc(-c3ccc(Cl)cc3)cc(C(=O)O)c12
2	8.1	O=C(C1=C(N2CCCCC2)c2ccccc2S(=O)(=O)N1)c1ccccc1
x	1.8	Cn1c2ccccc2c2c3c(c4c5ccccc5n(CCC#N)c4c21)CNC3=O
x	-12	c1cc(-c2csnn2)ccc1-c1csnn1
16	0.1	NC(=O)C1CCN(C(=O)c2ccc(F)cc2F)CC1
2	0.1	COC(=O)c1c[nH]n2c(=O)c3c(nc12)CCC3
x	-0.9	Cc1onc(-c2ccccc2Cl)c1C(=O)NCC(=O)O
-20	x	CSCCC(N)c1nc2ccccc2[nH]1 (stereo unspecified)
7	3.2	O=C1/C(=N\O)CCc2c1no[n+]2[O-]
2	-1.7	COc1c(O)cccc1-c1nnn(CCC(=O)OCC(=O)c2ccccc2)n1
-9	-6.4	O=C1N[C@H](C(=O)O)C1Cc1ccccc1 (stereo partly specified)
0	x	Cc1ccc(S(=O)(=O)N2CCC[C@H]2C(=O)OCc2c(C)noc2C)cc1
9	0.8	CC1(C)CCCC2=C1CC1C(=O)N(O)C(=O)C1C2 (stereo unspecified)
-13	x	CC(C(=O)OCC(=O)c1ccc2c(c1)OCCO2)N1C(=O)c2ccccc2C1=O (stereo unspecified)
1	x	Cn1c(=O)c2c(ncn2CCCN)n(C)c1=O
-4	x	Cn1c(-c2ccccc2)c(C(=O)CN2CCOCC2)c2ccccc21
x	-2.3	N#Cc1cc(Br)cc(Br)c1
6	0.7	CCOC(=O)c1[nH]c(=O)[nH]c1COC(=O)CNC(=O)c1ccccc1
x	1.1	COC(=O)c1sc(C(C)(C)C)cc1NC(=O)Nc1ccc(Cl)cc1
5	x	CCN(C(=O)CSc1nnc(C(F)(F)F)n1C)C1=CCCC1
13	0.6	CCSC1=C(C#N)C(=O)NCS1
x	-2.1	COC(=O)C1=C(C)NC2=C(C(=O)CCC2)C1c1ccc2c(c1)OCC2 (stereo unspecified)
4	x	CCOc1ccc2ccc(=O)oc2c1
x	0.0	O=C1CCS(=O)(=O)c2ccc(Cl)cc21
8	4.0	Cc1cc(C)c(S(=O)(=O)Nc2cc3c4c(oc3c3ccccc23)CCCC4=O)cc1C
23	x	Cc1ccc(S(=O)(=O)N(C2CCCC2)S(=O)(=O)c2ccc(Br)s2)cc1C
4	x	COc1ccc(C(=O)N2C(=O)c3ccc(N)cc3C2=O)cc1
7	x	CC(C)NC(=O)c1cc(-c2ccc(Br)cc2)on1
8	-0.2	O=C(Nc1ccc(C(F)(F)F)cc1Cl)c1ccc(Cn2cc(Br)cn2)o1
x	0.6	COc1ccc(NC(=O)CCn2cc(C)c3ccccc32)cc1
5	-0.3	Cn1c(CSCc2ccccc2)c(C#N)c2ccccc21
-3	x	Cc1ccc(NC(=O)COc2ccccc2)cc1
-12	x	Cc1cccc(NC(=O)CNc2nnnn2-c2ccccc2)c1C
4	1.2	Cc1cc(C)nc(SCC(=O)NC2=NN=C(c3ccccc3)CS2)n1
7	1.6	O=C(NCc1ccc(Cl)cc1)c1sc2ccccc2c1Cl
12	x	Cc1cc2c(c(SCC(=O)c3ccccc3)n1)C(=O)OC2
2	-1.1	CCS(=O)(=O)N1CCCC(c2nc3c(nnn3Cc3ccc(C)cc3)c(=O)[nH]2)C1 (stereo unspecified)
-13	x	Cc1ccc(-c2nc3cnccn3c2Nc2ccc3c(c2)OCO3)o1
-15	x	COc1ccc(Cl)cc1NC(=O)COC(=O)C12CC3CC(CC(O)(C3)C1)C2
-19	x	CN1/C(=C\C(=O)CN2C(=O)NC3(CCc4ccccc43)C2=O)C(C)(C)c2ccccc21 (stereo unspecified)
-3	-0.1	O=C(Cn1nc(-c2ccc(Cl)cc2)c2ccccc2c1=O)NCCN1CCOCC1
0	x	COc1ccc(S(=O)(=O)NCC(c2ccc3c(c2)OCO3)N2CCN(C)CC2)cc1 (stereo unspecified)
5	x	O=C(c1ccc(S(=O)(=O)N2CCOCC2)cc1)N1CCN(c2cccc(Cl)c2)CC1
6	0.4	O=C(N/N=C/c1ccc(OC(=O)c2ccco2)cc1)c1ccccn1
-12	x	COc1ccc(C2=NCC(CSc3nnc(-c4ccc5c(c4)OCO5)o3)S2)cc1 (stereo unspecified)
2	0.6	COC(=O)c1sc2nc[nH]c(=O)c2c1C
15	4.4	CC(C(=O)O)N1C(=O)/C(=C2/C(=O)N(C)c3ccccc32)SC1=S (stereo unspecified)
15	-7.6	COc1ccc(-[n+]2cc([O-])on2)cc1
8	x	O=C(O)CSC1CC(=O)N(c2cccc(C(F)(F)F)c2)C1=O (stereo unspecified)

# Further structures.
Sa helicase inh	MgrA DNA FP	SMILES
9	1.9	CC(Sc1ccccc1)C(=O)Nc1ccccc1Cl (stereo unspecified)
-21	x	CCCCN(C)C(=O)Cn1ncc2c(C)n(Cc3ccc(C)cc3)c(C)c2c1=O
11	x	CCO/C(C)=C(\C#N)C(=O)O
10	2.0	CC(C(=O)N1CCN(c2ccc(F)cc2)CC1)N1C(=O)c2ccccc2C1=O (stereo unspecified)
x	7.1	CCOc1cc(C=C2C(=O)NC(=O)NC2=O)ccc1OCCOCCOc1ccc(C)cc1
8	x	O=C(O)CCC(C(=O)O)N1C(=O)/C(=C\c2ccco2)SC1=S (stereo unspecified)
x	0.0	Cc1c(C(=O)Oc2cc(Cl)cc(Cl)c2)n(C)oc1=O
13	x	Cc1ccc(-c2c(C)sc3ncn(C(C)C(=O)O)c(=O)c23)cc1C (stereo unspecified)
-9	x	Cc1cc(C)c2c(-c3ccccc3)nc(SCC#N)n2n1

# This is a subset (hit frequency here may not be typical).
